High-throughput results as filed in PubChem BioAssay.
Calb FLC: C. albicans growth modulation with fluconazole; C. albicans CaCi-2 (fluconazole-resistant clinical isolate) + fluconazole, Alamar Blue growth, 48 h; growth inhibition, % (no concentration beside the values); 300,000 compounds, 0.57% hits; AID 1979;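 active = most replicates above 75%; inconclusive = exactly half above 75%; inactive = most below 75%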;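 note: all wells also contain fluconazole at 8 µg/ml as a sub-toxic cotreatment; 0% = median of DMSO wells and 100% = median of geldanamycin control wells; wells of about 8 µL received 7.5 nL stock; the first replicate is given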
T cruzi inh: blocks replication of Trypanosoma cruzi. T. cruzi beta-gal in NIH3T3, luminescence, 90 h. inhibition, % (test concentration not listed). 300,000 compounds, 1.4% hits;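 active = mean inhibition across valid replicates above about 55%, limit read from the data; inconclusive = mean below that limit but half or more replicates reach it; inactive = mean below it, under half of replicates reach it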;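 note: signal also drops with host cell toxicity which is not excluded here; 0% = plate median of DMSO wells and 100% = zero luminescence signal; higher percent means less beta-gal luminescence so fewer parasites; stock transfer was 50 nL into about 50 µL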
AF4-AF9 inh: blocks AF4 peptide binding to human AF9 | P42568 | AlphaScreen, biotin-AF4 peptide binding to FLAG-AF9 | inhibition, % at 10 µM | 350,000 compounds, 0.47% hits;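 active = every replicate reaching a set inhibition limit, whatever the replicate mean, cut at about 25% in these data; inconclusive = mean inhibition reaches that limit but some replicates miss it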;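 note: 0% = plate neutral control median and 100% = total signal loss; the record names both 10 and 1 µM as test concentration; the first replicate is given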
RanGTP-Impb inh: inhibitors of RanGTP-importin-beta interaction, primary screen, biochemical, FRET, CFP-Ran, YFP-importin-beta, homogeneous; cell-free CFP-Ran/YFP-importin-beta FRET ratio; inhibition, % (concentration not given with the values); 300,000 compounds, 1.1% hits; AID 2216;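 active = most replicates above 15%; inconclusive = exactly half above 15%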;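 note: 0% = DMSO wells and 100% = Ran loaded with GDP instead of GTP; wells of about 40 µL received 100 nL stock; the first replicate is given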
Beta cell apopt: blocks beta cell apoptosis | INS-1E cytokine-induced death, ATP luminescence, 48 h; percent of positive-control rescue, neutral wells zero | protection from apoptosis, % (test concentration not listed) | 300,000 compounds, 0.8% hits | AID 435005;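 active = all replicates at 75% or more, or half of them and the mean; inconclusive = half reach 75% but not the mean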;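 note: 0% = cytokine-treated negative control wells and 100% = positive control rescue; higher means more ATP so stronger rescue from cytokine killing; wells of about 40 µL received 100 nL stock; the first replicate is given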
LANA-H2A inh: blocks KSHV LANA binding to histone H2A/H2B | inhibition, % (test concentration not listed) | Q9QR71 | cell-free LANA-H2A/H2B peptide, fluorescence polarization | 320,000 compounds, 0.6% hits | AID 2629; in the data active = inhibition mostly above about 10%, no sharp cut-off; inactive = mostly below about 6.7%;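 note: stock transfer was 7.5 nL into about 10 µL; 0% = median of vehicle wells and 100% = median of positive control wells; one replicate is shown; the record names a cut of 25% in any replicate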
Target sequence (Q9QR71 whole entry, looked up): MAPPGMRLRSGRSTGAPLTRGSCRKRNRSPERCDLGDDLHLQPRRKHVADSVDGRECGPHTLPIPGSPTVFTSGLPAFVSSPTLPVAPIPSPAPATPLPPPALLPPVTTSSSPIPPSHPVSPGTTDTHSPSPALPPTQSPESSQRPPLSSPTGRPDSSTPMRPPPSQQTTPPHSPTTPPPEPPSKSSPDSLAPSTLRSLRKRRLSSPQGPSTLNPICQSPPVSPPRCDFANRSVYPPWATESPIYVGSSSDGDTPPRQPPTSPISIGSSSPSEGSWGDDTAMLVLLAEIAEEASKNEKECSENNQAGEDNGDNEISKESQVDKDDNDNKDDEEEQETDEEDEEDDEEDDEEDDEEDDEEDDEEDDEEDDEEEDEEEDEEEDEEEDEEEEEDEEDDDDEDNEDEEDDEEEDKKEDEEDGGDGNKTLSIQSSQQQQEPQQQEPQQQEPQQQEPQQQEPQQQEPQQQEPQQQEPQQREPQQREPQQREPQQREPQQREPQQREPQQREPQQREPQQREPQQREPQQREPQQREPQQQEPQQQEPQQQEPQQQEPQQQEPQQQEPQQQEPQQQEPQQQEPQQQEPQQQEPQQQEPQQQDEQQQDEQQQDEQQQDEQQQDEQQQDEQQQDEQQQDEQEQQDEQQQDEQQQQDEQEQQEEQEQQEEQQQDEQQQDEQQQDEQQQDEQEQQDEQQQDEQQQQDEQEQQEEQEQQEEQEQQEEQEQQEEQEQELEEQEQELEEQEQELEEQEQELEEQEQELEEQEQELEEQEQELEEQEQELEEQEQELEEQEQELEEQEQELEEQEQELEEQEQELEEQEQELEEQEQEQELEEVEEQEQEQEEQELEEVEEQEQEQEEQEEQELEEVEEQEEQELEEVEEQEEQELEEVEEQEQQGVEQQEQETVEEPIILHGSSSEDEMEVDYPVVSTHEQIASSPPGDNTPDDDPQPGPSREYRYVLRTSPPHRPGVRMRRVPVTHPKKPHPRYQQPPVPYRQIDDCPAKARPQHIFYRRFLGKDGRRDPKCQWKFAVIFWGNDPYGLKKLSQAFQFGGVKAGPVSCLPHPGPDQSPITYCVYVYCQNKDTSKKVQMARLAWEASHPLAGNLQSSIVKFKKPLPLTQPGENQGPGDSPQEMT
A1 inh: inhibitors of the anti-apoptotic protein A1, read as caspase activation; MEF A1-2A-BIM cells, Caspase-Glo 3/7 luminescence, 3 h; percent of clofoctol response, vehicle zero; caspase activation, % (no concentration beside the values); 330,000 compounds, 0.066% hits; AID 2462;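 active = over half of replicate activation scores above 10%, or exactly half above 10 with the replicate mean above 10; inconclusive = replicate mean below 10 yet half the replicates above 10; inactive = over half of replicates below 10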;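 note: wells of about 30 µL received 50 nL stock; many hits fall short of the cut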
Vif A3G: inhibitors of Vif binding to APOBEC3G peptide, primary screen, biochemical, TR-FRET, GST-Vif 1-94, biotin-A3G peptide, dose response retest (AID 1117319); inhibition, %; hits with a dose series show IC50 in µM; 260,000 compounds, 0.57% hits; TR-FRET GST-Vif / biotin-A3G peptide binding; higher % means a stronger effect; test concentration not given here; strong numbers were not always called active;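 active = above the screen mean plus three standard deviations and confirmed in dose response; inconclusive = results disagree or hit not tested in dose response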;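 note: Vif residues 1-94 fused to GST binding biotinylated APOBEC3G peptide 110-148; 0% = full assay without inhibitor and 100% = GST in place of GST-Vif; retest series ran down from 100 µM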
* = called active by the depositor; ? = inconclusive; . = no result given; & = joins results of further samples.

Values in the order – Calb FLC	Beta cell apopt	Vif A3G	AF4-AF9 inh	RanGTP-Impb inh	T cruzi inh	LANA-H2A inh	A1 inh
- CCN(Cc1ccncc1)C(=O)c1ccccc1NS(=O)(=O)c1ccc(F)cc1
 : 2	-4	0%	-7.4	7.3	3	1.0	0.0
- O=C(NCC(c1ccco1)N1CCOCC1)c1ccc(Cl)cc1 (stereo not drawn)
 : 3	-3	-10%	-4.7	-1.0	-1	4.2	0.2
- O=C(CCN1CCCCCC1)c1ccccc1
 : .	-19	-2%	.	.	.	-2.6	0.3
- CCOP(=O)(NC12CC3CC(CC(C3)C1)C2)NC12CC3CC(CC(C3)C1)C2
 : -5	3	.	-0.2	3.1	2	-5.6	0.2
- CC(C)[C@@H]1CC[C@@H](C)c2c(-c3ccccc3)n[nH]c21
 : 28	-1	10%	.	8.0	42	1.9	-0.1
- CCOc1ccccc1NC(=O)C(OC(=O)c1ccccc1O)c1ccccc1 (stereo not drawn)
 : 3	0	-1%	-1.8	-4.4	2	-1.3	-0.9
- CCCOC(=O)c1ccc(NC(=O)CCOc2ccccc2)cc1
 : -13	1	9%	.	-0.6	-11	-6.1	-0.7
- O=C(O)CSc1cc(C(=O)c2ccccc2O)cn2c(=O)c3c4c(sc3nc12)CCCC4
 : -5	.	-11%	0.4	-11	-2	.	.
- O=C1CC(/C=C/c2ccccn2)=Nc2ccccc2N1
 : 11	-13	5%	5.7	-2.3	12	-3.9	0.4
- Cc1cnc2c(C(=O)O)cnn2c1
 : 16	-1	-6%	1.3	5.1	-6	-1.5	0.2
- CC1CC(=O)N(CC(=O)Nc2cccc(F)c2)c2ccccc2S1(=O)=O (stereo not drawn)
 : 7	-2	.	1.2	2.7	5	-0.8	1.3
- O=C(/C=C/c1cc([N+](=O)[O-])ccc1OC(F)F)Nc1cccc([N+](=O)[O-])c1
 : -6	.	8%	-0.6	2.5	45	.	.
- CCCOc1ccc(-c2nn(-c3ccccc3)cc2/C=C2\SC(=S)N(C3CCS(=O)(=O)C3)C2=O)cc1 (stereo not drawn)
 : -17	-7	?	.	-5.7	8	-5.9	1.1
- COC(=O)C(C)Oc1cc(OC(C)C(=O)OC)c2c(C)c(Cl)c(=O)oc2c1 (stereo not drawn)
 : 11	4	-5%	-1.0	-0.6	-16	1.0	-1.2
- COc1cc(C(=O)N/N=C/c2cn(Cc3ccccc3)c3ccccc23)ccc1O
 : 13	1	.	1.6	0.9	2	5.5	-1.0
- CC(C)CCN(C(=O)c1cc(=O)[nH]c2ccccc12)c1c(N)n(Cc2ccccc2)c(=O)[nH]c1=O
 : .	-4	-2%	3.0	.	.	3.3	0.5
- CCOc1ccc(-c2nn[nH]n2)cc1
 : -7	0	-4%	.	0.3	0	4.6	-0.8
- CCc1ccccc1NC(=O)CC(NCc1ccccc1)C(=O)O (stereo not drawn)
 : -10	-9	.	-1.1	-2.1	-3	-1.6	-0.6
- Cc1ccc(C)c(CN2C(=O)c3ccccc3S(=O)c3ccc(C(=O)N4CCN(c5ccccn5)CC4)cc32)c1 (stereo not drawn)
 : 17	8	1%	1.8	-1.7	30	2.1	0.2
- Cc1ccc(C(=O)N2C(=O)C(c3ccccc3)Oc3ccccc32)cc1 (stereo not drawn)
 : 76	.	27%	0.0	4.2	-26	0.5	0.1
- CC(C)C(=O)N1CCN(c2ccc(NC(=O)c3ccc4c(c3)OCCO4)cc2)CC1
 : 15	1	1%	0.4	1.4	3	1.1	1.1
- COCCn1nnnc1C(c1cc2cc(C)ccc2[nH]c1=O)N1CCc2ccccc21 (stereo not drawn)
 : 0	-8	17%	.	?	2	1.3	0.2
- Cc1ccc2oc3c(c(=O)c2c1)C(c1cccc(O)c1)N(c1ccccn1)C3=O (stereo not drawn)
 : ?	5	-1%	-2.0	0.3	9	-3.3	0.9
- Cc1nc(Nc2ccc(Cl)cc2Cl)sc1C(=O)Nc1ccccc1
 : 25	11	.	-1.9	2.1	-6	-3.5	0.2
- Cc1ccccc1Cn1nc(C)c(NC(=O)C2(C)CC2(Cl)Cl)c1C (stereo not drawn)
 : 0	4	2%	.	-4.9	5	-4.9	0.7
- CCc1nc(SCc2ccc(Br)cc2)n[nH]1
 : -19	-9	-8%	-1.9	-0.2	4	-4.1	-0.9
- CCN=C(NCC)SC1CC(=O)N(CCc2ccccc2)C1=O (stereo not drawn)
 : 2	-6	.	-3.0	8.0	15	-0.7	0.0
- COCCn1c(-c2ccccc2F)n[nH]c1=S
 : .	8	6%	.	1.9	-1	0.8	-0.7
- COc1cc(Cn2c(-c3nonc3N)nc3ccccc32)ccc1C
 : -3	13	6%	.	3.6	34	-0.1	1.4
- COc1cc(F)ccc1S(=O)(=O)n1c(C)nc2ccccc21
 : 0	.	-3%	-2.7	5.3	-6	-2.5	0.6
- O=C(O)c1ccc(-n2cccc2/C=C2/NC(=O)N(c3ccccc3)C2=O)cc1
 : 2	3	3.3µM*	-2.3	2.1	3	-3.2	-1.2
- Cc1ccccc1NS(=O)(=O)c1cc(C(=O)N2CCCC2)ccc1Cl
 : 13	4	-6%	-1.4	0.9	-1	-0.8	-1.1
- c1ccc(Nc2nc(-c3cccnc3)cs2)nc1
 : -20	-12	26%	.	-1.4	30	-0.8	-13
- Cn1ncc([N+](=O)[O-])c1C(=O)N1CCCCCC1
 : -1	.	.	-9.5	0.7	9	.	.
- O=C(CN1C(=O)CCC1=O)Nc1cccc2c1C(=O)NC2=O
 : -1	1	-6%	-7.9	5.4	-8	1.0	-0.1
- O=C1NCCN(Cc2ccc(Cl)c(F)c2)C1CC(=O)N1CCCCO1 (stereo not drawn)
 : ?	-3	-3%	-0.6	-0.6	2	3.2	0.4
- O=C(Cn1cc(C(F)(F)F)ccc1=O)OCC(=O)c1ccc[nH]1
 : .	-2	5%	2.6	.	.	-3.7	0.3
- CCOc1ccc(/C=N/Nc2ccc(C(F)(F)F)cc2[N+](=O)[O-])cc1O
 : -9	5	.	4.2	-2.4	19	-12	0.0
- Cc1cc(C)c(S(=O)(=O)c2cccc(Cl)c2)c(Cl)n1
 : -3	-3	1%	-12	-1.2	-1	0.5	0.1
- Cc1ccc(NC(=O)CSc2n[nH]c(-c3ccncc3)n2)c(C)c1
 : 15	-5	.	-1.5	5.5	-3	-5.3	-0.9
- COc1cc(NS(=O)(=O)c2ccc(NC(=O)c3cccnc3)cc2)ncn1
 : -20	2	.	-0.9	?	-10	0.9	-0.2
- CCOc1ccc(NS(=O)(=O)c2ccc(NC(=O)C3CC3)cc2)cc1
 : -3	-1	.	-0.6	-0.8	7	0.7	-0.6
- CCN1CCN(C(=O)CCNC(=O)Cn2ccc3ccccc3c2=O)CC1
 : -6	-2	0%	.	10	-7	1.5	0.6
- C=CCNC(=S)N/N=C1\CCS(=O)(=O)c2ccccc21
 : 6	-1	9%	0.6	3.5	-4	1.7	0.2
- CSc1nc(N)nc(SCC(=O)OC(C)C)c1C#N
 : -6	4	-2%	.	-2.8	-13	-0.3	-0.4
- COc1ccc(NC(=O)c2cnn3c(C(F)(F)F)cc(-c4ccco4)nc23)cc1OC
 : -5	-1	?	.	0.9	10	-2.5	0.7
- CCCCN(C(=O)c1ccc(C#N)cc1)c1c(N)n(CCC)c(=O)[nH]c1=O
 : -7	-4	.	-7.1	-13	2	-4.1	0.6
- CN(c1ncc(C(F)(F)F)cc1Cl)n1cc(C(N)=O)c2ccccc2c1=O
 : -1	0	14%	.	-2.0	-5	1.0	0.7
- CN(C(=O)c1cccc(C#CC(C)(C)O)c1)C1CCCN(Cc2ccccc2F)C1 (stereo not drawn)
 : 3	.	.	-1.1	-1.7	26	-1.6	0.4
- Cc1cccc(NC(=O)CCCN2C(=O)c3cccc4cccc(c34)C2=O)c1
 : -4	-2	-1%	.	-1.1	13	0.2	-0.5
- Cc1cc(C)c(S(=O)(=O)Nc2nnc(C3CCCCC3)s2)c(C)c1
 : .	-2	.	-3.7	.	12	-2.8	-0.5
- CCOc1ccc2c(c1)[nH]c(=S)n2C
 : 26	-2	.	-0.7	-0.1	-13	-0.8	0.6
- CCCc1cc2c(cc1NC(=O)c1ccccc1C)OCO2
 : -3	-1	4%	.	3.0	-9	-12	0.3
- O=C(Nc1nnc(-c2ccccc2SCc2ccccc2)s1)Nc1ccccc1F
 : 11	17	1%	.	-1.8	-3	0.5	0.4
- Cc1cc2oc(=O)cc(CN(C)Cc3cccc(F)c3)c2cc1C
 : -2	-6	-12%	-1.9	0.9	6	2.2	-1.1
- O=C(CSc1ncccn1)NC1CCCc2ccccc21 (stereo not drawn)
 : 1	-2	-6%	-2.3	4.4	-8	5.5	-0.6
- CCOC(=O)c1cc([N+](=O)[O-])sc1NC(=O)CC
 : 2	1	1%	0.7	-3.2	19	-0.9	-0.1
- COc1ccc(N(CC(=O)NC2CCCC2)C(=O)Cn2nnc(-c3ccc(C)cc3)n2)cc1OC
 : -8	-9	19%&-4%	.	-4.5	3	3.9	0.2
- COc1ccc(NC(=O)c2ccc(S(=O)(=O)N3CC(C)OC(C)C3)cc2)cc1 (stereo not drawn)
 : .	1	.	-4.7	.	.	0.8	-0.6
- COc1ccc(CC(=O)NCc2cccc(CNC(=O)Cc3ccc(OC)c(OC)c3)c2)cc1OC
 : -2	-6	.	2.1	2.0	-9	3.0	0.7

Fetched one by one from the entries so far (two):
Values in the order – Calb FLC	Beta cell apopt	Vif A3G	AF4-AF9 inh	RanGTP-Impb inh	T cruzi inh	LANA-H2A inh	A1 inh
- Cc1cc2oc(=O)cc(CN(C)Cc3cccc(F)c3)c2cc1C
 : -2	-6	-12%	-1.9	0.9	6	2.2	-1.1
- CN(C(=O)c1cccc(C#CC(C)(C)O)c1)C1CCCN(Cc2ccccc2F)C1 (stereo not drawn)
 : 3	.	.	-1.1	-1.7	26	-1.6	0.4

Additional results:
Values in the order – Calb FLC	Beta cell apopt	Vif A3G	AF4-AF9 inh	RanGTP-Impb inh	T cruzi inh	LANA-H2A inh	A1 inh
- CCOC(=O)C(=O)C1=CN(Cc2ccccc2)C=C(C#N)C1
 : 29	-2	.	2.1	-1.3	-5	-4.8	0.1
- c1ccc(Cc2nn3c(Cn4cnc5ccccc54)nnc3s2)cc1
 : -13	6	2%	.	-3.4	-6	-6.1	0.4
- CN(C)c1ccc(C(c2nnnn2C(C)(C)C)N2CCc3ccccc3C2)cc1 (stereo not drawn)
 : -3	.	-2%	.	-26	-1	.	.
- COc1ccc(C(=O)Nc2cccc(C(=O)N3CCCC3)c2)cc1
 : -9	-2	4%	.	-1.6	-15	5.5	-0.6
- COC(=O)c1c(NC(=O)C(C)C)sc2c1C(C(=O)OC)CC2 (stereo not drawn)
 : 0	3	3%	.	4.7	2	0.8	1.0
- COc1cc(/C=N/N(C)C)cc(Br)c1O
 : 5	-3	5%	-16	-1.8	2	-2.9	-0.7
- Cc1nc2ccccn2c1C(=O)NCc1ccc2c(c1)OCO2
 : -23	-6	-2%	.	-2.8	-25	4.1	0.1
- CC1=N/C(=C/c2cccnc2)C(=O)O1
 : -7	-8	26%	0.1	?	-9	0.2	-0.2
